# Screening results as filed in PubChem.
# Vaccinia mCherry – qHTS for Stage-Specific Inhibitors of Vaccinia Orthopoxvirus: mCherry Reporter Primary qHTS | Vaccinia virus mCherry reporter infection, fluorescence; about a quarter of the inactives have no number | Potency, µM (doses to about 36.5 µM), for the others: at the top dose activity change, negative = inhibition, hits mostly inhibitors | 310,000 tested, 0.63% active; active = well fitted inhibition curve with a large enough effect; inconclusive = small, poorly fitted or top-dose-only effect; inactive = no such curve, though single readings can be large or run the other way; tested in A549 cells; also: nearly all actives have a fitted effect of over 35% in size; inactives centre near -10
# VACV Venus inh – qHTS for Stage-Specific Inhibitors of Vaccinia Orthopoxvirus: Venus Reporter Primary qHTS; Vaccinia virus Venus reporter expression, fluorescence; Potency, µM (highest dose often 36.5 µM), without a hit: at the top dose activity change, negative = inhibition, usual class: inhibitors; 330,000 tested, 0.46% active; active means well fitted inhibition curve with a large enough effect; inconclusive means small, poorly fitted or top-dose-only effect; inactive means no such curve, though single readings can be large or run the other way; tested in A549 cells; also: nearly all actives have a fitted effect of over 30% in size; inactives centre near -10
# * marks the source's active call; other numbers are inactive results; i = inactive; u = inconclusive; x = not tested or not shown; & = joins results of further samples; [ ] = another dose, or the depositor's remark. % is scaled to controls: 0 for no effect and ±100 for the full control effect; potency is read from the fitted curve at half-maximal effect.
SMILES,Vaccinia mCherry,VACV Venus inh
CC1=CC(C)(C)N2C(=O)C(=Nc3ccc(O)cc3)c3cccc1c32,u,-1%
CNS(=O)(=O)c1ccc2c(c1)oc(=O)c1cc(S(=O)(=O)NC)ccc12,-10%,-20%
CC(C)(C)OC(=O)N1CCN(c2ccc(NC(=O)Cn3nnc(-c4ccccc4)n3)cc2)CC1,-29%,-23%
CC(C)(C)OC(=O)C[C@H]1C/C=C\C[C@@H](CC(=O)N[C@H](CO)Cc2ccccc2)C(=O)NC[C@H](c2ccccc2)OC1=O,-3%,-18%
Cc1ccsc1C(=O)C1CCCN(Cc2cnc(N)nc2)C1 (stereo not given),u,-13%
Cc1coc2cc3oc(=O)c(CC(=O)N4CCCCC4)c(C)c3cc12,-2%,-3%
Cc1c(C(c2ccc(O)cc2)c2c(O)c3ccccc3oc2=O)c(=O)n(-c2ccccc2)n1C (stereo not given),-9%,-4%&-2%
Cc1ccc(-c2csc3nc(C)n(-n4c(C)ccc4C)c(=O)c23)o1,x,-12%
CCOCCCn1c(=N)c(C(=O)NCc2cccnc2)cc2c(=O)n3cc(C)ccc3nc21,-1%,-9%
O=C(NCc1ccc(Cl)cc1)C1CCN(S(=O)(=O)c2ccc(F)cc2)CC1,-9%,-12%&3%
N#Cc1ccccc1NC(=O)Nc1cccs1,x,-16%
CN(Cc1ccccc1)C1(CNC(=O)CCC(F)(F)F)Cc2ccccc2C1,-26%,-16%
CCCCCc1cc(=O)oc2c(C(CCN3CCCC(C)C3)c3ccc4c(c3)OCO4)c(OC)cc(OC)c12 (stereo not given),-15%,u
CCOC(=O)[C@@H]1[C@H]2COc3cc(OC)ccc3[C@@H]2N2C(=O)N(c3ccc(F)cc3)C(=O)[C@@]12C,i,-13%
CCOCc1cnc(C)nc1NCC(=O)c1c(C)n(C)c2ccc(OC)cc12,i,-10%
CCn1c2ccc(/C(C)=N\O)cc2c2cc(/C(C)=N\O)ccc21,3%,-3%
Cn1nc(-c2ccccc2F)c2cc(C(=O)NCCc3ccc(Cl)cc3)sc21,-16%,0%
CN(C)C(/C=C/Nc1ccc(O)cc1)=C(C#N)C#N,7%,2%
O=C(CCN1C(=O)C2C3CCC(C3)C2C1=O)Nc1cccc(Cl)c1 (stereo not given),i,-8%
O=C(CSc1nc2c([nH]c3ccccc32)c(=O)n1-c1ccc(F)cc1)NCC1CCCO1 (stereo not given),-9%,-11%
CCN(CC(=O)NC(C)(C)C)C(=O)C(c1ccccc1)c1ccccc1,u,-14%
Cc1ccc(C)c(OCc2cc(C(=O)N3CCC(N4CCCC(O)C4)CC3)no2)c1 (stereo not given),-20%,-11%
COc1ccc(NS(=O)(=O)c2ccc(C)c(C(=O)NCC(c3ccco3)N(C)C)c2)cc1 (stereo not given),i,-3%
CN1CCN(c2oc(Cc3cccc4ccccc34)nc2C#N)CC1,-10%,-7%
CN(C)/C=C1\C=Cc2ccccc21,15%,-3%
SMILES,Vaccinia mCherry,VACV Venus inh
Cc1ccc(NC(=O)CO/N=C(\N)c2ccccc2)cc1C,-7%,5%
Cc1ccc[n+](C(C(=S)NCc2ccco2)=C([O-])c2ccccc2Cl)c1,16%,-3%
CN(C)C(=O)c1nc2ccccc2s1,-3%,12%
C[C@H](CO)N1C[C@H](C)[C@@H](CN(C)S(=O)(=O)c2ccccc2)Oc2ccc(NC(=O)CCC(F)(F)F)cc2C1=O,0%,-13%
CC(=O)OC1CCC2(C)C(CCC3C2CC(=O)C2(C)C3CC(N3CC3)C2C(C)=O)C1 (stereo not given),i,u
CCO/N=C/c1ccc(OC)c(Oc2nc(OC)cc(OC)n2)c1,-11%,0%
CCCN(CC#CCOc1ccc(OC)cc1)CCC,-13%,-11%
Cc1cc(C)c(NC(=O)c2ccc3nc(C(C)C)oc3c2)c(C)c1,-5%,13%
CCN(CC)Cc1c(C(=O)N2CCc3ccccc3C2)nc2ccc(Cl)cn12,-11%,-6%
CCOC(=O)c1cnc(SCC(=O)Nc2ccc3c(c2)OCCO3)nc1N,x,-20%
Cn1c(CNC(=O)c2ccco2)nnc1SCC(=O)c1ccc(Br)cc1,-21%,-5%
CCC(C)(C)NC(=S)Nc1ccc(-c2nc3ccc(C)cc3s2)cc1,u,u
COc1ccc(NC(=O)CN(C)S(=O)(=O)c2ccc3c(c2)c(=O)n(C)c(=O)n3C)cc1,-14%,1%
CCn1c(CNC(=O)C23CC4CC(CC(C4)C2)C3)nnc1SCC(=O)Nc1ccccc1,1%,5%
CC1CCCN(c2ccc3nc4ccccc4c(=O)n3n2)C1 (stereo not given),-20%,-6%
Cc1noc(C)c1COc1ccc(C(=O)NNC(=O)c2ccccc2O)cc1,3.5µM*,u
COc1ccc(OC)c(CNn2c(-c3cccc(C)c3)nc3ccccc3c2=O)c1,-2%,-11%
N#CCCN(Cc1cccnc1)C(=S)NC1CC2C=CC1C2 (stereo not given),-5%,-14%
COc1ccc(CCNS(=O)(=O)c2ccc3c(c2)NC(=O)C(C)S3)cc1OC (stereo not given),-13%,-5%
NC(=O)C[n+]1cccc(CNC(=O)c2ccc(OC(F)F)cc2)c1,4%,0%
CC(=O)OCCNc1cc(SC(C)C)c2nonc2c1[N+](=O)[O-],-19%,-20%
C[C@@H]1CN([C@H](C)CO)C(=O)CCCn2nncc2CO[C@H]1CN(C)Cc1ccncc1,i,-9%
CCOC(=O)[C@@H]1[C@H]2COc3cc(OC)ccc3[C@H]2N2C(=O)N(c3cccc(Cl)c3)C(=O)[C@]12C,-3%,-10%
O=C(O)COc1ccc(/C=N/O)cc1Br,2%,0%
COc1ccccc1-c1nc(C(=O)NCC2CCCO2)cc2c1[nH]c1ccccc12 (stereo not given),i,-20%
SMILES,Vaccinia mCherry,VACV Venus inh
S=C1NC2=C(CCC/C2=C\c2ccc(Cl)cc2)C(c2ccc(Cl)cc2)N1 (stereo not given),u,-19%
COc1ccccc1CC(=O)Nc1ccc2c(c1)CCC2,i,-9%
CCOC(=O)N1CCN(C(=O)COC(=O)COc2c(C)cc(C)cc2C)CC1,-9%,-10%
Cc1nn(CCCC(=O)NCc2ccc(OC(C)C)cc2)c(=O)c2c1sc1ccccc12,-19%,-19%
COc1ccccc1N1CCN(Cc2cc(=O)oc3ccccc23)CC1,19%,1%
O=C(NNC(=O)C1CCN(S(=O)(=O)c2cccc(Cl)c2)CC1)C1CC1,-1%[7.34 µM],0%[7.34 µM]
Cn1c(=O)c2c(nc(SCC(=O)N3CCc4ccccc4C3)n2C)n(C)c1=O,-4%,-2%
C/C(=N\NC(=O)CC#N)c1cc2ccc(O)cc2oc1=O,i,2%
CCOc1ccc(Cc2onc3c2C(=O)CCC3)cc1OCC,1%,-7%
CC(CCc1ccccc1)NC(=O)c1ccc(F)cc1 (stereo not given),i,-8%
CCN1CCN(Cc2c(O)ccc3c(=O)c(-c4ccc(OC)c(OC)c4)c(C)oc23)CC1,-21%,-12%
Cc1cccc(Nc2nnc(SCc3cn4ccsc4n3)s2)c1,x,-25%
O=S(=O)(c1ccccc1F)N1CCN(Cc2cc3c(cc2Br)OCCO3)CC1,-16%,1%
CSc1ncc(CN2CCN(C3CCN(C(C)C)CC3)C(CCO)C2)cn1 (stereo not given),-7%,-10%
COP(=O)(OC)C(NC(=O)/C=C/c1ccccc1)C(Cl)(Cl)Cl (stereo not given),-15%,-22%
N#CCC(CNc1ncc(C(F)(F)F)cc1Cl)OC(=O)c1cccc(C(F)(F)F)c1 (stereo not given),u,-26%
Cn1c(-c2ccsc2)c(-c2cccs2)c2cc(Br)ccc21,-5%,-6%
Cc1ccc(S(=O)(=O)/C(C#N)=C/c2c(N3CCCCC3)nc3ccccn3c2=O)cc1,i,-16%
Cc1cc(S(=O)(=O)Nc2nc(CN3CCOCC3)nc3sc4c(c23)CCC4)cc(C)c1C,-10%,-1%
COc1ccc(Cl)cc1C(=O)NNC(=S)NC(=O)c1cc(-c2ccc(Cl)cc2)nc2ccccc12,i,-9%
CCN(CCCNC(=O)c1cc2cc3cc(OC)ccc3nc2s1)c1ccccc1,-23%,-9%
CC1CC(=O)N(CC(=O)NCc2ccc3c(c2)OCO3)c2ccccc2S1 (stereo not given),-22%,-8%
CC1(C(=O)NCc2ccccc2)CSCC(=O)N1Cc1cccc(C(F)(F)F)c1 (stereo not given),-15%,-2%
COc1cc(NC(=O)c2cc(-c3cccc(OC)c3)n[nH]2)cc(OC)c1,-4%,-6%
CCc1nn(CC(=O)NCC(C)c2ccccc2)c(=O)c2cc3occc3n12 (stereo not given),-8%,-5%
SMILES,Vaccinia mCherry,VACV Venus inh
O=C(CN1C(=O)CCc2cc(S(=O)(=O)N3CCCCC3)ccc21)NCc1ccc(Cl)cc1,-12%,-8%
Cc1cc(C)cc(NC(=S)N2CCN(C(=O)c3ccco3)CC2)c1,i,-13%
CCSc1nnc2c(n1)OC(c1ccc(OCC(=O)O)cc1)Nc1ccccc1-2 (stereo not given),1%,0%
Cc1ccc2nc(SC(C)C(=O)NC3CCCc4ccccc43)[nH]c2c1 (stereo not given),-7%,-22%
COc1ccc(Cl)cc1NC(=O)c1ncn(-c2ccccc2)n1,-15%,-16%
CCCc1cc(=O)[nH]c(SCC(=O)NC2CCCCCCC2)n1,-6%,-12%
O=Cc1ccc(O)c(O)c1,i,-18%
CCN1C[C@@H]2[C@@H]3C(=O)N(C)C(=O)[C@@H]3[C@](Cc3ccccc3)(C1=O)N2C(=O)c1ccc(Cl)c(Cl)c1,i,-6%
CC(C)Oc1ccc(S(=O)(=O)N2CCOCC2)cc1NC(=O)CSC(=S)N1CCCC1,-8%,u
COc1cccc(-c2nn(Cc3ccccc3)cc2C(=O)O)c1,i,-1%
C[C@H]1COC2=C1C(=O)C(=O)c1c2ccc2c1CCCC2(C)C,11µM*,11µM*
CSc1ccccc1OCc1cc(C(=O)N2CCSCC2)no1,-18%,-9%
CCn1c(SCC(=O)NCCc2ccccc2)nnc1C(C)C,i,-6%
CC(NC(=O)c1ccco1)C(=O)N1CCN(c2ccccc2)CC1 (stereo not given),-2%,-3%
COc1ccc(Br)c(C(=O)Nc2cc3c(cc2N2CCCCC2)n(C)c(=O)c(=O)n3C)c1,-28%,-29%
O=C(Cc1ccccc1)Oc1cccc(-n2cnnn2)c1,i,0%
COc1cscc1C(=O)O,i,-5%
Cc1ccc(-c2cc(C(=O)NCc3cnn(C)c3C)c3ccccc3n2)cc1C,-13%,-8%
CCn1ncc(/C=N/NC(=O)c2ccc3c(c2)OCO3)c1C,-1%,u
CCN(CC)c1ccc(C=NNc2ccc([N+](=O)[O-])cn2)cc1,u,41%[activator]
CC1=NN(c2ccc(Cl)cc2)C(=O)C1,i,10%
CCCCCCN(C(=O)CCCN1C(=O)NC(c2ccc([N+](=O)[O-])cc2)C(C(=O)OCc2ccccc2)=C1C)C(C)C(=O)NCCCC (stereo not given),u,u
COC(=O)C1(C(=O)OC)c2ccccc2N(S(=O)(=O)c2ccc(C)cc2)C1CC(=O)c1ccccc1 (stereo not given),-15%,-15%
CCS(=O)(=O)N1CCN(c2cccc(C)c2C)CC1,x,6%
Cc1cccc(NC(=O)Nc2ccc(C)cc2Br)c1,i,-9%
CCOC(=O)N(CC)c1ccc(C(O)(C(=O)OCC)C(F)(F)F)cc1 (stereo not given),i,-18%
CCCn1c(N)cc(=O)n(C)c1=O,-4%,6%
O=C(/C=C(\c1ccc(Cl)cc1)n1cncn1)c1ccc(Cl)cc1,-5%,9%
Cc1ccc(S(=O)(=O)Nc2ccc(O)c3cccnc23)cc1,-23%,3%

# Entries shown so far containing a Cl atom, in the order listed:
SMILES,Vaccinia mCherry,VACV Venus inh
O=C(NCc1ccc(Cl)cc1)C1CCN(S(=O)(=O)c2ccc(F)cc2)CC1,-9%,-12%&3%
Cn1nc(-c2ccccc2F)c2cc(C(=O)NCCc3ccc(Cl)cc3)sc21,-16%,0%
O=C(CCN1C(=O)C2C3CCC(C3)C2C1=O)Nc1cccc(Cl)c1 (stereo not given),i,-8%
Cc1ccc[n+](C(C(=S)NCc2ccco2)=C([O-])c2ccccc2Cl)c1,16%,-3%
CCN(CC)Cc1c(C(=O)N2CCc3ccccc3C2)nc2ccc(Cl)cn12,-11%,-6%
CCOC(=O)[C@@H]1[C@H]2COc3cc(OC)ccc3[C@H]2N2C(=O)N(c3cccc(Cl)c3)C(=O)[C@]12C,-3%,-10%
S=C1NC2=C(CCC/C2=C\c2ccc(Cl)cc2)C(c2ccc(Cl)cc2)N1 (stereo not given),u,-19%
O=C(NNC(=O)C1CCN(S(=O)(=O)c2cccc(Cl)c2)CC1)C1CC1,-1%[7.34 µM],0%[7.34 µM]
COP(=O)(OC)C(NC(=O)/C=C/c1ccccc1)C(Cl)(Cl)Cl (stereo not given),-15%,-22%
N#CCC(CNc1ncc(C(F)(F)F)cc1Cl)OC(=O)c1cccc(C(F)(F)F)c1 (stereo not given),u,-26%
COc1ccc(Cl)cc1C(=O)NNC(=S)NC(=O)c1cc(-c2ccc(Cl)cc2)nc2ccccc12,i,-9%
O=C(CN1C(=O)CCc2cc(S(=O)(=O)N3CCCCC3)ccc21)NCc1ccc(Cl)cc1,-12%,-8%
COc1ccc(Cl)cc1NC(=O)c1ncn(-c2ccccc2)n1,-15%,-16%
CCN1C[C@@H]2[C@@H]3C(=O)N(C)C(=O)[C@@H]3[C@](Cc3ccccc3)(C1=O)N2C(=O)c1ccc(Cl)c(Cl)c1,i,-6%
CC1=NN(c2ccc(Cl)cc2)C(=O)C1,i,10%
O=C(/C=C(\c1ccc(Cl)cc1)n1cncn1)c1ccc(Cl)cc1,-5%,9%
